TRPML1 ag: qHTS for Agonists of the Human Mucolipin Transient Receptor Potential 1 (TRPML1) | 0.12% of 410,000 active | activation, % (no concentration beside the values) | Mucolipin-1 (Homo sapiens), Q9GZU1 | TRPML1-expressing cells, Ca2+ dye fluorescence, FDSS; host cell line not named in the record; reference of the full effect not given here; in the data active = activation above about 50%; inconclusive = about 30% to 50%; inactive = below about 30%; further: 0% is about no effect; the text of the record puts the active cut at 80%
Target sequence (Q9GZU1 whole entry, looked up): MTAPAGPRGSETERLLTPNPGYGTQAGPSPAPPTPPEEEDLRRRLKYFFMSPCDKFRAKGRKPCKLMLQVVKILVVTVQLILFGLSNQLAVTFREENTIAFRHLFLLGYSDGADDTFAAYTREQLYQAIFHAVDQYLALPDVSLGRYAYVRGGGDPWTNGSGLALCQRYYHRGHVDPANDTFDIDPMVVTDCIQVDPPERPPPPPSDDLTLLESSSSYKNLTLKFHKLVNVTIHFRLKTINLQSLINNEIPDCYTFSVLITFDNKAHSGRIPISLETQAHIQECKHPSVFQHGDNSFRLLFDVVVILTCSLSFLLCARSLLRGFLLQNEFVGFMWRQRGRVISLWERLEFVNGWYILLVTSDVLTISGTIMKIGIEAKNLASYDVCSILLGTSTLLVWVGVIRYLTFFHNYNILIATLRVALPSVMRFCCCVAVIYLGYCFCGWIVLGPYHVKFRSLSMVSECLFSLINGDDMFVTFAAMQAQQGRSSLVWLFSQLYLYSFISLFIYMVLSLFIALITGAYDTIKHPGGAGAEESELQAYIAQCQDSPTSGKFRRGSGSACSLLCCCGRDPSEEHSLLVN
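Tetracycline-induced TRPML1-DL cells are seeded and incubated overnight before loading with a no-wash Ca2+ dye and quencher. Agonist activity is taken from the 110 s fluorescence read following compound pin-transfer on an FDSS, before EC80 54-4 challenge.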
TRPML1 inh: qHTS for Inhibitors of the Human Mucolipin Transient Receptor Potential 1 (TRPML1). 0.02% of 390,000 active. activity change, negative = inhibition, % (test concentration not listed). Mucolipin-1 (Homo sapiens), Q9GZU1. TRPML1-inducible cells, Ca2+ dye fluorescence, FDSS; hits give low values; inhibition of EC80 agonist-evoked calcium signal; in the data active means activity change below about -50%; inconclusive means about -30% to -50%; inactive means above about -30%;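 further: stimulus is agonist 54-4 at its EC80 concentration; on the % scale 0 is the no-effect control and ±100 the full control effect; compound concentration not given in the record; the text of the record puts the active cut at -80%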
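TRPML1-DL cells, Tet-induced overnight (~16 h, 37 °C) at 1,500 cells/well, were loaded with Ca8 no-wash dye plus quencher for 45-90 min at room temperature. Compounds were pinned during FDSS kinetic reading; agonist 54-4 at EC80 (4 uM final) then added.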
PINK1 modulator: A Quantitative High throughput Screen to Identify Chemical Modulators of PINK1 Expression; PINK1 immunofluorescence, high-content cytometry, 24 h; Potency, µM (series often up to 76.6 µM), without a hit: top-dose activation (PINK1 increase), usual class: activators; 0.2% of 410,000 active; active = well fitted activation curve with a large enough effect; inconclusive = small, poorly fitted or top-dose-only effect; inactive = flat fitted curve, though single readings scatter; cell line not stated here;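 further: potency means the concentration at half of the fitted maximal effect; % of control where 0% means no effect; nearly all actives have a fitted effect of over 65% in size; a mitochondrial uncoupler was the plate control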
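Fluorescence from anti-PINK1 antibody, together with nuclear and cell stains, was scanned on a laser-scanning cytometer. Before staining, stable-line cells were incubated 24 hours with compounds at 5 concentrations; primary antibody 12 h at 10 degrees C.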
D2 ag: Beta-Arrestin HTS for Positive Allosteric Modulators of the Human D2 Dopamine Receptor: Agonists | DiscoveRx PathHunter D2 beta-arrestin, luminescence, 90 min; 100% = 57 uM dopamine signal | activation, % (concentration not given with the values) | 0.084% of 360,000 active | AID 624465, 2012; in the data active = activation above about 40%; inconclusive = about 15% to 40%; inactive = below about 15%; further: compound concentration not given in the record; the text of the record calls up to 30% inactive
Target sequence (P14416 whole entry, looked up): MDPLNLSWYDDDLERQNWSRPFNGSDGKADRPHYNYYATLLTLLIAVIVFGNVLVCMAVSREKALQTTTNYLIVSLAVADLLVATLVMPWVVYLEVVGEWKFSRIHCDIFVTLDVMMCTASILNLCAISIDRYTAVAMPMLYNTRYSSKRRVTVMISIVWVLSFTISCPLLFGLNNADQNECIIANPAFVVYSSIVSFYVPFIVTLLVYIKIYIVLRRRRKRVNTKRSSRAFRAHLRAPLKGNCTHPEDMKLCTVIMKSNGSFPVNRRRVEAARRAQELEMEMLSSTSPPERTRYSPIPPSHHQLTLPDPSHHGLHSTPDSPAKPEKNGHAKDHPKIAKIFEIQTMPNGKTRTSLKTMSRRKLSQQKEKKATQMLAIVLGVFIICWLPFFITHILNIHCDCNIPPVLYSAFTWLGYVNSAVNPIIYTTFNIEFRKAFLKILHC
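Agonist mode: compounds alone added to overnight-plated D2 PathHunter cells for 90 min at 37 C, with 57 uM final dopamine (EC100) defining full response. Beta-arrestin recruitment detected by chemiluminescent reagent, read after 1 h at ambient temperature.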
Six1-Eya2 inh: qHTS Assay for Inhibitors of the Six1/Eya2 Interaction | activity change, % (no concentration beside the values) | AID 651725, 2012 | Homeobox protein SIX1 (Homo sapiens) + Protein phosphatase EYA2 (Homo sapiens), … | AlphaScreen GST-Six1/His-Eya2 binding, biochemical; hits give low values; control for the full effect not named in the record | 0.56% of 360,000 active; in the data active = activity change below about -65%; inconclusive = about -30% to -65%; inactive = above about -30%; further: on the % scale 0 is the no-effect control and ±100 the full control effect; compound concentration not given in the record
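Compounds are tested against tagged Six1 and Eya2 proteins bridged by glutathione donor and nickel acceptor beads; after a one-hour incubation at 37 °C without light, AlphaScreen emission is recorded.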
D2 PAM: Beta-Arrestin HTS for Positive Allosteric Modulators of the Human D2 Dopamine Receptor: Potentiators | potentiation, % (concentration not given with the values) | AID 624464, 2012 | DiscoveRx D2 beta-arrestin cells, luminescence, 90 min; 100% = 57 uM dopamine signal | 0.23% of 360,000 active; active = potentiation of 50% or more; inconclusive = 30% to 50%; inactive = 30% or less;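 further: compound concentration not given in the record; tested on top of an EC20 dose of dopamine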
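PathHunter beta-arrestin assay in DiscoveRx D2 cells. Compounds were added with an EC20 of dopamine (50 nM final) for 90 min at 37 deg C. Luminescence was read 1 h after detection reagent, with 57 uM dopamine as the EC100 control.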
The depositor's hits bear a star; u = inconclusive; x = not tested or not shown; & = joins results of further samples; [ ] = dose if it differs, or a comment.

SMILES	TRPML1 ag	TRPML1 inh	PINK1 modulator	D2 ag	Six1-Eya2 inh	D2 PAM
CC1CC(C)(C)OC(c2ccc(C(C)C)cc2)O1 (configuration not stated)	-0.3	-12	7.0%	-0.3	2	9
COC(=O)C1CSC(C(=O)OC)N1C(=O)CN1CC(C)OC(C)C1 (configuration not stated)	-0.5	-13	13%[38.3 µM]	-1.6	-4	2
Cn1c(=O)c2cc3ccc(Cl)cc3nc2n(C)c1=O	-0.3	-6	0.4%	-4.6	3	-4
COc1cc(C)nc(NS(=O)(=O)c2ccc(C)cc2)n1	0.9	22	0.3%	1.8	-6	-17
CN(C)C1CN(Cc2cn(Cc3ccc(Cl)cc3)nn2)S(=O)(=O)C1 (configuration not stated)	-0.3	x	1.5%	x	8	x
COc1cc(C)c(NC(=O)C(=S)N2CCCC2)cc1C	-0.7	1	2.0%	-3.3	0	-11
O=C(O)CN1C(=O)CNC1=O	-0.1	1	1.0%	-0.8	10	-6
Cc1nc2cc(O)ccc2n1C	0.6	18	0.8%	2.2	-1	4
Cc1onc(-c2ccccc2Cl)c1C(=O)Nc1ccccc1	0.3	19	1.1%	-4.7	14	-19
COCC(O)Cn1ccnc1N=Nc1ccccc1 (configuration not stated)	-0.1	x	-0.4%	-5.7	-17	-4
Cc1ccc(NC(=O)C2c3ccccc3Oc3ccccc32)c(C)c1	0.9	24	0.3%	-5.6	6	-17
CC(=O)N1CCc2cc(Br)cc(S(=O)(=O)NCCN3CCCCC3C)c21 (configuration not stated)	-0.5	-9	-1.8%	-4.6	0	-28
CNC(=O)Cn1nc(-c2ccc(C)cc2)c2ccccc2c1=O	1.1	31	1.3%	-1.9	17	-2
CS(=O)(=O)N(CC(=O)Nc1cccc([N+](=O)[O-])c1)c1cccc(F)c1	0.5	19	8.3%	-8.0	-6	-7
O=C1CN(C(=O)c2ccco2)c2ccccc2N1	-0.5	7	-0.7%	-3.8	10	-2
COc1ccc(S(=O)(=O)N2CCOCC2)cc1NC(=O)CN(C)Cc1c(F)cccc1Cl	0.2	6	0.1%	8.0	-11	5
COc1cc(SC)ccc1C(=O)NCC1CCCCC1	0.0	60	-0.6%	1.9	-1	-10
CC(=O)NCCC1CCN(C(=O)C2CCC(=O)N(C3CCCC3)C2)CC1 (configuration not stated)	0.4	-2	-1.5%	-7.9	11	-6
Clc1ccc(C2Nc3ccccc3-n3cccc32)cc1 (configuration not stated)	2.6	-8	0.7%	-2.4	30	-2
CCOC(=O)N1CCC(NC(=O)Cn2cc3c(n2)CCCCC3)CC1	1.1	19	1.4%	-3.8	8	-3
O=C(Cn1cc2c(n1)CCCCC2)NCCN1CCOCC1	0.3	12	0.6%	-6.9	5	1
CCOC(=O)C1=C(N)Oc2ccc3ccccc3c2C1c1cccc(O)c1 (configuration not stated)	0.8	18	5.2%	-4.8	-8	-3
COc1cc2c(cc1OC)[C@@H]1Cc3ccc(OC)c(OC)c3CN1CC2	-0.6	33	-0.5%	-2.0	3	-19
O=C(CCC1CCCN(C(=O)C2CCCC2)C1)NCc1ccc(F)c(F)c1 (configuration not stated)	2.4	19	1.0%	1.6	25	-6
CCCCCCn1c(SCC(=O)Nc2cc(C)on2)nc2ccccc2c1=O	1.8	6	u	-1.1	2	-3
COc1ccc(Cc2c(C)nc(N)nc2Cl)cc1	2.7	-11	0.1%	0.1	-7	-1
CCCCNC(=O)CCn1nc(-c2ccccc2)ccc1=O	1.1	6	3.5%	2.9	9	0
CCCCn1c(SCC(=O)Nc2nnc(C)s2)nnc1-c1ccoc1C	-0.2	11	-0.6%	-4.5	2	-31
COC(=O)CSc1ccc(S(=O)(=O)N2CCC(C)CC2)cc1[N+](=O)[O-]	-0.6	17	9.5%	-2.7	-7	-13
O=C(CCNC(=O)c1ccco1)Nc1ccc(OC(F)(F)F)cc1	0.4	-18	-1.4%	0.3	12	-4

In the list so far, three have a furan ring, fused or not:
SMILES	TRPML1 ag	TRPML1 inh	PINK1 modulator	D2 ag	Six1-Eya2 inh	D2 PAM
O=C1CN(C(=O)c2ccco2)c2ccccc2N1	-0.5	7	-0.7%	-3.8	10	-2
CCCCn1c(SCC(=O)Nc2nnc(C)s2)nnc1-c1ccoc1C	-0.2	11	-0.6%	-4.5	2	-31
O=C(CCNC(=O)c1ccco1)Nc1ccc(OC(F)(F)F)cc1	0.4	-18	-1.4%	0.3	12	-4

(next part)
SMILES	TRPML1 ag	TRPML1 inh	PINK1 modulator	D2 ag	Six1-Eya2 inh	D2 PAM
Cc1ccc(CNC(=O)CS(=O)Cc2nc(-c3cccs3)oc2C)cc1 (configuration not stated)	0.5	-7	0.4%	0.6	2	-4
COc1cccc(-c2noc(-c3ccc(Br)o3)n2)c1	1.4	5	-0.1%	2.0	5	12
Cc1c(C(=O)NCc2cccc(C(F)(F)F)c2)sc(=O)n1Cc1ccccc1F	3.4	x	-0.9%	-2.8	1	3
COc1ccc(Cl)cc1NC(=O)CSc1nnc(CN2CCOCC2)n1-c1ccc(Cl)cc1	5.0	11	u	-1.9	-3	-24
O=C(COc1ccc(-n2cnnn2)cc1)Nc1ccccc1OC(F)F	-0.2	39	2.9%	-0.4	9	-10
Cc1ccccc1NC(=O)c1cc(S(=O)(=O)N2CCOCC2)cn1C	-0.2	12	0.3%	-3.1	1	-4
O=C(CNC(=O)c1ccc(N2CCCC2=O)cc1)Nc1ccc(F)c(F)c1F	0.0	-8	4.1%	0.2	-4	-3
CCCN(CC(=O)Nc1ccccc1C)C(=O)c1nn(CC)c(=O)c2ccccc12	1.4	10	2.7%	-6.5	6	-8
C=C(C)CSc1nc(-c2ccccc2)cc(-c2ccc(OC)cc2)c1C#N	2.6	-1	0.7%	x	x	x
CCNC(=O)C/C(C)=N/NC(=O)C12CC3CC(CC(C3)C1)C2	0.8	-5	-0.7%	-2.5	-1	-31
CCCCCCCCCCCCC/C=C/[C@@H](O)[C@@H](N)CO	-0.1	3	-0.3%	0.9	-1	-8
O=C(Nc1ccccc1Cl)c1cc(C2CCCN(S(=O)(=O)c3cccs3)C2)on1 (configuration not stated)	-0.2	x	2.4%	3.6	0	5
COc1ccc(-c2oc3ncn4nc(COc5c(C)cccc5C)nc4c3c2-c2ccc(OC)cc2)cc1	-0.5	-6	4.1%	x	x	x
Cc1cc(OCC(=O)Nc2c(C(=O)c3ccccc3)oc3ccccc23)cc(C)c1Cl	2.5	47	-1.7%	x	x	x
NC(N)=Nc1ccc(C=C2C=Cc3ccccc32)cc1	1.6	52	-0.3%	2.2	-16	-5
Cc1ccc(NC(=O)c2cccc(S(=O)(=O)N3CCN(C)CC3)c2)cc1F	-0.1	-13	-1.2%	-4.1	10	-8
CC(CNS(=O)(=O)c1ccc(Br)cc1)CN(C)C (configuration not stated)	-0.7	3	2.6%	-4.6	7	-16
CC(CCc1ccccc1)NC(=O)CCNS(=O)(=O)c1ccccc1C(F)(F)F (configuration not stated)	-0.3	19	2.8%	-4.2	2	-15
O=C(CSC(=S)N1CCCC1)N(Cc1nnc(-c2ccccc2Cl)o1)C1CC1	2.1	-18	0.2%	-3.6	-2	-11
CCCCNC(=O)Cn1nc([N+](=O)[O-])c([N+](=O)[O-])c1C	1.9	-8	0.6%	2.9	8	-1
O=C(/C=N/O)Nc1ccc(F)cc1	0.5	-6	-0.6%	-6.9	13	-2
CC(=O)c1ccc(C(C)(C)c2ccc(C(C)=O)s2)s1	-0.1	5	-0.6%	-2.7	-8	-17
Cc1sc2ncnc(SCC(=O)NC3CCS(=O)(=O)C3)c2c1C (configuration not stated)	-0.3	13	0.1%	-3.0	-2	-13
CC(C)Cc1nnc(NC(=O)CCC(=O)N2CCOCC2)s1	-0.4	-12	1.1%[38.3 µM]	-1.9	-2	-3
COc1ccc(-n2c(=S)[nH]c3cc(C(=O)NCc4ccc(F)cc4)ccc3c2=O)c(OC)c1	-0.6	9	9.9%	-6.2	u	-10
CN(CC(=O)Nc1ccccc1Cl)C(=O)COC(=O)c1ccc(S(=O)(=O)C(F)F)cc1	1.4	-14	1.7%	-1.8	2	-5
CCC(C(=O)NC1CC1)n1nc(C)c2c(C)n(-c3ccccc3)nc2c1=O (configuration not stated)	-1.2	-9	-0.1%	-5.0	5	1
O=C(Nc1cccc([N+](=O)[O-])c1)c1ccc([N+](=O)[O-])o1	-0.9	0	0.0%	13	-8	15
CC(O)CNCCCOc1ccc(Cl)cc1C(C)(C)C (configuration not stated)	0.5	1	-2.5%	0.8	-1	-13
Cc1cccc(CNC(=O)C2CCC(=O)N(Cc3ccccc3F)C2)n1 (configuration not stated)	0.4	-9	-2.9%	-3.0	4	3
COc1ccc(CCNC(=O)CC2Nc3cc(C)c(C)cc3NC2=O)cc1OC (configuration not stated)	0.1	7	-1.6%	-0.3	-5	-11
CC1CN(S(=O)(=O)c2cccc(C(=O)OCC(=O)Nc3ccc4c(c3)OCO4)c2)CC(C)O1 (configuration not stated)	0.7	-9	2.0%	-2.3	-10	4
Cc1nc(-c2cn[nH]c2-c2ccc(O)cc2O)cs1	0.8	-14	0.9%	-4.2	0	-7
CC(=O)Nc1cccc(-c2ccnc3c2CC(C(=O)NCCc2ccccc2)O3)c1 (configuration not stated)	-0.7	x	4.0%	5.8	4	-7
Cc1cccc(-c2cc3c(nn2)-c2ccccc2C3=O)c1	2.7	20	7.7%	-18	-17	-57
CC(C(=O)Nc1ccc(F)cc1Cl)N(C)CCOc1ccccc1 (configuration not stated)	0.8	-26	3.1%	-0.2	15	-13
NS(=O)(=O)c1cc(C(=O)OCC(=O)Nc2ccccc2[N+](=O)[O-])ccc1Cl	1.2	3	0.9%	6.3	-4	2
CCc1nccn1CCC(=O)N1CCCC(N2CCN(c3ccccc3F)CC2)C1 (configuration not stated)	-0.2	-10	2.0%	7.1	-1	-5
COc1ccc(-c2cc(C(F)(F)F)nc(S(C)(=O)=O)n2)cc1	0.9&3.6	29&10	-1.1%&-2.7%	-2.6	4	-26
COc1ccc(Cl)cc1NC(=O)COC(=O)C1CC1	0.6	-2	-1.3%	-3.9	0	-2
NC(=O)c1nn2c(C(F)(F)F)cc(-c3ccccc3)nc2c1Br	x	x	-0.3%	-2.2	-5	8
CC(=O)Nc1ccc(S(=O)(=O)N(C)CC(=O)Nc2ccccc2N2CCOCC2)cc1	1.3	10	-0.9%	4.6	-8	-7
CCCC(=O)Nc1nnc(CCc2ccccc2)s1	-0.4	-3	0.2%	-5.5	-6	-35
Cc1cc(S(=O)(=O)N2CCCC2)ccc1OCC(=O)NCc1ccccc1	-0.5	-5	1.2%	-2.2	0	-12

Assay outcomes from PubChem BioAssay.
